Screening data (PubChem)
AF4-AF9 inh: blocks AF4 peptide binding to human AF9; P42568; AlphaScreen, biotin-AF4 peptide binding to FLAG-AF9; inhibition, % at 10 µM; hit rate 0.47% among 350,000;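 active = every replicate reaching a set inhibition limit, whatever the replicate mean, cut at about 25% in these data; inconclusive = mean inhibition reaches that limit but some replicates miss it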;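 note: 0% = plate neutral control median and 100% = total signal loss; the record names both 10 and 1 µM as test concentration; the first replicate is given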
Target sequence (P42568 whole entry, looked up): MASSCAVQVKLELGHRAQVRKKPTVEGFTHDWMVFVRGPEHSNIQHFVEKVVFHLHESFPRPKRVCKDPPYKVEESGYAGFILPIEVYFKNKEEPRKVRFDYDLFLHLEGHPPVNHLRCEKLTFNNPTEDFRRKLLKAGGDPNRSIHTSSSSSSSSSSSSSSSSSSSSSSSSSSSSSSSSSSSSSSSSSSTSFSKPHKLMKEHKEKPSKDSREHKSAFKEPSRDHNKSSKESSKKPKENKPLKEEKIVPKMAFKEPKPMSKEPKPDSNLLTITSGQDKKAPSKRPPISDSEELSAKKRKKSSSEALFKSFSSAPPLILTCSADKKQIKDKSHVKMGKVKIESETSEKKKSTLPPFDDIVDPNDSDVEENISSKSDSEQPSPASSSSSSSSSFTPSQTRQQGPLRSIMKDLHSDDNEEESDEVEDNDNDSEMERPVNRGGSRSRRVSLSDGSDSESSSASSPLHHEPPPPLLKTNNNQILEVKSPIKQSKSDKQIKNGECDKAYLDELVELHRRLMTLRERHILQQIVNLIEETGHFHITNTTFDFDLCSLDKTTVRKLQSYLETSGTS
Vif A3G: HIV-1 Vif–A3G interaction blockers – biochemical, TR-FRET, GST-Vif 1-94, biotin-A3G peptide, dose response retest, primary screen (AID 1117319). TR-FRET GST-Vif / biotin-A3G peptide binding; higher % means a stronger effect; test concentration not given here; strong numbers were not always called active. inhibition, %, or IC50 in µM where a hit was titrated. hit rate 0.57% among 260,000;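 active = above the screen mean plus three standard deviations and confirmed in dose response; inconclusive = results disagree or hit not tested in dose response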;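 note: Vif residues 1-94 fused to GST binding biotinylated APOBEC3G peptide 110-148; 0% = full assay without inhibitor and 100% = GST in place of GST-Vif; retest series ran down from 100 µM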
rRNA inh HTS: inhibits bacterial ribosomal RNA function over humanized ribosomes | E. coli WT GFP vs humanized-ribosome RFP mutants, fluorescence, 24 h; active compounds read low; DMSO median 0, no signal -100 | GFP signal change (wild-type ribosome), % (concentration not given with the values) | hit rate 1.6% among 350,000 | AID 720706;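 active = significant combined selectivity score with lowered wild-type GFP, culture density cut under 30%, mutant RFP and density less affected; inactive = any of these conditions unmet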; note: one replicate is shown; some compounds called inactive have numbers as strong as hits
E coli growth: E. coli growth inhibition | Escherichia coli growth, OD600, 23 h; active compounds read low | OD600 absorbance (test concentration not listed) | hit rate 0.21% among 330,000;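 active = OD600 absorbance below the run mean of sample wells minus 3.6 SD, in any replicate, cut at about 0.56 in these data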;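 note: stock transfer was 300 nL into about 60 µL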
HNF4A DNA FP: change in binding of human HNF4 alpha to DNA; P41235; HNF4a-FITC DNA binding, fluorescence polarization, 1 h; activity change, % at 10 µM; hit rate 0.3% among 360,000; AID 1224865; in the data active = activity change above about 30%, passing the limit was not always enough;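 note: controls were the assay level and a saturating level of protein; the project sought stronger binding though the title names inhibitors; some compounds called inactive have numbers as strong as hits; positive values seem to mean higher polarization but the record does not say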
ALR inh: inhibitors of human sulfhydryl oxidase ALR; P55789; purified ALR, DTT oxidation, H2O2 HRP-luminol luminescence; inhibition, % (concentration not given with the values); hit rate 3.8% among 290,000;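 active = mean and each replicate at 75% or more; inconclusive = only one of the two met; inactive = neither met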;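 note: stock transfer was 7.5 nL into about 7.5 µL; 0% = neutral wells and 100% = wells with inactivated enzyme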
Target sequence (P55789 whole entry, looked up): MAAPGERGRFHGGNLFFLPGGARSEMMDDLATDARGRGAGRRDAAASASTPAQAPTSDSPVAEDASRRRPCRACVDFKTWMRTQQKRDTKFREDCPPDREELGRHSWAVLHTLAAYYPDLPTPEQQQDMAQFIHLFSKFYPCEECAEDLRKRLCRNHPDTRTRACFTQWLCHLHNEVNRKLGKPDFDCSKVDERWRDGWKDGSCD
FGF22 binding: FGF22 (human) thermal shift binding | calls only at 9.99 µM | hit rate 1.5% among 340,000 | AID 651658 | recombinant FGF22 thermal shift, SYPRO orange fluorescence; percent of sucrose octasulfate shift, DMSO zero;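 active = melting point raised past a set limit in the mean and every replicate; inconclusive = no clear call; three in four hits are not shown here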
Target sequence (Q9HCT0 whole entry, looked up): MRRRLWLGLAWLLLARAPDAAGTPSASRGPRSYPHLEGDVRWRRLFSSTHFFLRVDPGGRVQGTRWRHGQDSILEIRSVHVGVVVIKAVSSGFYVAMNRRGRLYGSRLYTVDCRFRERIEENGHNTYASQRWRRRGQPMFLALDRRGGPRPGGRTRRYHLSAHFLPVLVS
rRNA inh HTS OD600: further read-out of rRNA inh HTS, marked with its call; OD600 change, %; measured here: OD600 growth;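 optical density of the mix in the first replicate; 0 = DMSO median and -100 = no signal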
rRNA inh HTS RFP: further read-out of rRNA inh HTS, marked with its call; RFP signal change, %; measured here: RFP humanized mutant strains;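 first replicate; 0 = DMSO median and -100 = no signal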
An asterisk follows results filed as active; i = inactive; ? = inconclusive; . = no result given; & = joins results of further samples. Not all compounds are listed. The share of hits here may be higher or lower than overall.

SMILES	AF4-AF9 inh	Vif A3G	rRNA inh HTS	rRNA inh HTS OD600	rRNA inh HTS RFP	E coli growth	HNF4A DNA FP	ALR inh	FGF22 binding
COc1ccc(Oc2cnc3ccccc3n2)cc1	-2.5	-111%	-4	9	1.8	0.73	-3.9	1	i
C[C@H](CO)N1C[C@H](C)[C@@H](CN(C)Cc2ccc(Cl)c(Cl)c2)Oc2ccc(NC(=O)Cc3ccccc3)cc2C1=O	-0.4	.	0	-2	5.0	.	.	.	i
COc1ccc(NC(=O)c2ccc(CNc3c(NC4CCCCC4)c(=O)c3=O)cc2)c(OC)c1	2.3&-44	-5%&-3%	2	9	-5.3	0.67&0.76	1.6&-0.1	-4	i
COc1ccc(NC(=O)c2ccc3nc[nH]c3c2)cc1	-2.4	-8%	-6	3	-12	0.61	-2.5	.	i
COc1ccc(S(=O)(=O)N2CCC(C(=O)NC(c3nc4ccccc4[nH]3)C(C)C)CC2)cc1 (centres undefined)	1.1	-2%	7	13	2.9	0.72	0.8	-4	i
COc1ccc(CC(=O)OCc2nnc(-c3ccccc3)o2)cc1	-3.2	.	-5	-2	2.0	0.71	4.3	3	i
CC1(C)Cc2c(cnn2-c2cccc(F)c2)C(NC(=O)C2CCOCC2)C1 (centres undefined)	1.0	.	9	4	4.0	0.69	1.0	-3	i
O=C(CSc1nc2ccccc2[nH]1)NCCN1CCCCC1	.	-3%	.	.	.	0.72	-2.7	-9	.
COc1ccc(/C(O)=C2/C(=O)C(=O)N(c3ccccn3)C2c2ccc(F)cc2)cc1 (centres undefined)	0.6	57%	-2	1	-0.5	0.68	-1.9	3	i
COc1ccc(C(=O)n2nc(C)cc2Nc2ccccc2)cc1	.	0%	.	.	.	0.71	-4.6	0	.
CC(c1nc2ccccc2[nH]1)N(C(=O)C1=NNC(=O)CC1)c1ccccc1 (centres undefined)	-2.1	.	2	2	0.0	.	0.4	.	i
Cc1nnc(SCC(=O)NCc2ccccc2)s1	.	-4%	.	.	.	0.71	0.7	.	.
COc1ccc(N2C(=O)C3C(C2=O)C3(c2ccccc2)c2ccccc2)cc1 (centres undefined)	-0.6	.	-20*	-15*	1.1*	0.67	1.5	-1	i
COc1ccc(-n2cccc2/C=C2\C(=N)N3N=C(C(C)C)SC3=NC2=O)cc1	0.9	3%	-40	-57	-4.5	.	-0.2	54	i
COc1ccccc1NC(=O)C1=C(C)Nc2nnnn2C1c1ccncc1 (centres undefined)	.	-6%&-6%	.	.	.	0.67	1.2	0	.
CCOC(=O)N1CCN(C(=O)c2ccc(Cn3c(=S)[nH]c4cc(OCC)c(OCC)cc4c3=O)cc2)CC1	-0.1	-3%	27	13	1.1	0.69	2.6	8	.
COc1cccc(C2CC(c3cccs3)=NN2C(=O)CSc2nc3ccccc3s2)c1OC (centres undefined)	-59	11%	14	23	4.2	0.78	-1.8	0	i
CCCC1O[C@@H]2C[C@H]3[C@@H]4CCC5=CC(=O)C=C[C@]5(C)[C@H]4[C@@H](O)C[C@]3(C)[C@]2(C(=O)CO)O1 (some centres undefined)	-2.3	4%	1	-1	8.2	.	0.6	-18	i
CC(C)NC(=O)Nc1ccc2c(c1)C(=O)N([C@H](C)CO)C[C@H](C)[C@H](CN(C)Cc1ccc(C(F)(F)F)cc1)O2	-0.7	.	0	-9	-1.2	.	.	.	i
O=C(NCCOc1ccccc1)C1CCC(=O)N(C2CCCCCC2)C1 (centres undefined)	-2.2	-2%	7	5	-0.6	0.69	-1.4	-5	i
CC1(C)C2CC=C(/C=N/NC(=O)c3ccc(Cl)cc3)C1C2 (centres undefined)	2.0	-4%	7	7	1.8	.	-3.4	-7	i
COC(C)(C)[C@]12CC(O)(C(C)C)ON1[C@H]1CCCCC1N2O (some centres undefined)	.	3%	.	.	.	0.76	0.0	6	.
CCc1nnc2c(N(C)S(=O)(=O)c3ccc(C)cc3)nc3ccccc3n12	2.0	7%	-5	-2	1.8	0.66	-1.4	-14	i
O=C(c1cccnc1)N1C[C@H]2[C@@H](c3ccccc31)[C@@H](CO)N2CC1CCCC1	-2.6	.	-3	-10	0.1	.	.	.	i
O=C1OCC(CO)(CO)N=C1NNc1ccccc1[N+](=O)[O-]	-1.0	-3%	5	-2	0.8	0.67	1.4	99*	i
COc1ccccc1CNS(=O)(=O)c1cc2c3c(c1)C(C)C(=O)N3CCC2 (centres undefined)	-5.7	2%	2	0	1.4	0.7	4.0	0	i
Clc1cccc(-c2nnc(SCc3nc4ccccc4[nH]3)n2Cc2ccco2)c1	.	29%	.	.	.	0.66	5.8	1	.
CCC(C)(NC(=O)c1ccccn1)C(=O)NC1CCCC1 (centres undefined)	-0.7	21%	12	15	0.6	0.74	-2.3	-5	i
CCOc1ccc(CCNC(=O)C2CCCN(c3nn4c(=O)cc(C)nc4s3)C2)cc1 (centres undefined)	.	-4%	.	.	.	0.7	1.2	-8	.
Cc1ccccc1CNS(=O)(=O)c1c(C)[nH]c(C)c1C(=O)N1CCCCC1	-2.1	.	5	-6	-1.5	0.68	-2.2	32	i
OCCCc1nc2n(n1)C(c1ccccc1)C=C(c1ccc(F)cc1)N2 (centres undefined)	.	27%	.	.	.	0.64	-3.5	14	.
O=C(CNCc1ccc(F)cc1)Nc1ccc(S(=O)(=O)N2CCOCC2)cc1	0.1	.	3	-6	-2.4	0.62	1.0	-1	i
COC(=O)c1ccccc1NC(=O)/C=C/c1cc(OC)c(OC)c(OC)c1	.	1%	.	.	.	0.81	-2.8	-7	.
O=C(COC(=O)c1cc(S(=O)(=O)NCc2ccccc2)ccc1O)NCc1ccccc1	.	10%	.	.	.	0.74	2.0	-25	.
CC1CCN(CC(C)OC(=O)c2ccco2)CC1 (centres undefined)	7.8	.	11	12	-0.6	0.69	2.5	-5	i
CCCCCCn1c(=O)n2n(c1=O)[C@@H]1CN(S(=O)(=O)c3ccc(C)cc3)C[C@]1(O)[C@@H](OC(=O)NCc1ccc(OC)c(OC)c1)C2	1.6	-1%	9	1	7.1	.	-0.3	.	i
C=CCn1c(SCc2cccc(OC)c2)nnc1-c1ccncc1	2.0	.	4	7	-1.1	0.67	1.7	-1	i
CC(O)[C@H]1CNC(=O)C(=O)N1CCc1cc(C(F)(F)F)cc(C(F)(F)F)c1 (some centres undefined)	1.2	.	9	8	-8.3	.	2.2	-11	i
CC1CCCN(C(=O)CCNC(=O)c2ccccc2Cl)C1 (centres undefined)	1.2	.	16	11	1.6	0.73	-0.2	-16	i
COc1ccc(CCNC(=O)c2ccc(OCc3c(C)noc3C)cc2)cc1OC	-0.9	-7%	-10	-9	-0.9	0.71	1.7	.	i

Retrieved by structure from the list above:
SMILES	AF4-AF9 inh	Vif A3G	rRNA inh HTS	rRNA inh HTS OD600	rRNA inh HTS RFP	E coli growth	HNF4A DNA FP	ALR inh	FGF22 binding
CC(O)[C@H]1CNC(=O)C(=O)N1CCc1cc(C(F)(F)F)cc(C(F)(F)F)c1 (some centres undefined)	1.2	.	9	8	-8.3	.	2.2	-11	i
CC1CCN(CC(C)OC(=O)c2ccco2)CC1 (centres undefined)	7.8	.	11	12	-0.6	0.69	2.5	-5	i
COC(=O)c1ccccc1NC(=O)/C=C/c1cc(OC)c(OC)c(OC)c1	.	1%	.	.	.	0.81	-2.8	-7	.
COc1ccc(CCNC(=O)c2ccc(OCc3c(C)noc3C)cc2)cc1OC	-0.9	-7%	-10	-9	-0.9	0.71	1.7	.	i
C=CCn1c(SCc2cccc(OC)c2)nnc1-c1ccncc1	2.0	.	4	7	-1.1	0.67	1.7	-1	i
CCCCCCn1c(=O)n2n(c1=O)[C@@H]1CN(S(=O)(=O)c3ccc(C)cc3)C[C@]1(O)[C@@H](OC(=O)NCc1ccc(OC)c(OC)c1)C2	1.6	-1%	9	1	7.1	.	-0.3	.	i
O=C(COC(=O)c1cc(S(=O)(=O)NCc2ccccc2)ccc1O)NCc1ccccc1	.	10%	.	.	.	0.74	2.0	-25	.

(continued)
SMILES	AF4-AF9 inh	Vif A3G	rRNA inh HTS	rRNA inh HTS OD600	rRNA inh HTS RFP	E coli growth	HNF4A DNA FP	ALR inh	FGF22 binding
CCCC#Cc1cnc2c(c1)C(=O)N([C@@H](C)CO)C[C@@H](C)[C@@H](CN(C)Cc1ccccc1F)O2	-0.3	.	-2	-1	2.2	.	.	.	i
CCC(=O)N1CC2(CN(S(C)(=O)=O)C2)c2c(n(C)c3cc(OC)ccc23)[C@@H]1CO	0.8	.	1	7	-2.0	.	.	.	i
CC1CCCCN1C(=O)CSc1nc(C2CC2)nc2ccccc12 (centres undefined)	-0.5	.	-14	-19	2.1	0.64	-0.3	.	i
O=C(NCCc1ccccn1)c1cc(-c2cccc3ccccc23)nc2ccccc12	.	.	.	.	.	0.71	1.9	-3	.
Cc1nn2c([nH]c(=O)c3ccccc32)c1C=O	-1.8	0%	11	1	3.0	0.71	-0.2	0	i
Cc1ccc(Cn2c(C(CO)Nc3nc(-c4ccc(Cl)c([N+](=O)[O-])c4)cs3)nc3ccccc32)cc1 (centres undefined)	.	.	0	8	-1.0	0.71	-1.5	-14	i
O=C(c1ccc2c(c1)OCO2)N1C[C@@H]2[C@H](c3ccccc31)[C@H](CO)N2C(=O)CC1CC1	0.3	.	7	18	0.2	.	.	.	i
O=C(CCc1ccccc1)Nc1cc(Cl)ccc1O	.	1%	.	.	.	0.6	-4.4	-3	.
COc1ccc2oc(C(=O)OCC(=O)c3ccc4c(c3)OCCO4)c(C)c2c1	.	-22%	.	.	.	0.7	-2.1	12	.
C[C@@H](O)C#Cc1ccc([C@@H]2[C@@H](CO)N3CCCCN(C(=O)c4cccc(F)c4)C[C@H]23)cc1	-0.8	.	-2	10	-0.6	.	.	.	i
O=C(c1cccc(S(=O)(=O)NCc2ccccc2)c1)N1CCCC1	-1.0	-3%	2	10	-1.4	0.7	0.8	0	i
CCOC(=O)N1CCC(NC(=O)C(NS(=O)(=O)c2cccc3nsnc23)c2ccccc2)CC1 (centres undefined)	-3.9	3%	13	5	-3.9	0.67	-0.1	-8	i
O=C(NCCC1CCCCN1S(=O)(=O)c1ccc(F)cc1)C(=O)NCC1CCCO1 (centres undefined)	-6.3	-5%	4	10	-1.0	0.7	3.7	2	i
O=C(CCNS(=O)(=O)c1ccccc1C(F)(F)F)NCc1ccc2c(c1)OCO2	.	7%	.	.	.	0.76	3.0	-25	.
COc1cc(/C=C/C(=O)O)cc(S(=O)(=O)Nc2ccccc2Cl)c1OC	-5.5	?	0	2	0.4	0.7	2.4	1	i
O=C1C(SCCO)=C(SCCO)C(=O)c2ccccc21	-0.6	.	-48	-60	-14	.	4.0	-26	i
CC(=O)NC(Cc1cccc(F)c1)C(=O)NC1CCN(C(=O)c2ccc(C)cc2)CC1 (centres undefined)	-0.4	.	9	10	-0.4	0.67	-4.5	-2	i
COc1ccc(CNC(=O)C/C(C)=N/NC(=O)Cc2ccc(OC)c(OC)c2)cc1	.	-5%	.	.	.	.	2.2	0	.
Cc1cccc(S(=O)(=O)c2c(N)n(/N=C/c3cccnc3)c3nc4ccccc4nc23)c1	.	11%	.	.	.	.	-1.3	-9	.
Cc1cccc(N2CCN(C(=O)c3cc4cc(F)ccc4[nH]3)CC2)c1C	.	-15%	3	9	-1.8	0.71	-0.3	.	.
COc1cc(CNc2ccc(O)cc2)cc(Br)c1OCc1ccccc1	21	3µM*	-32	-23	29	0.64	0.6	30	i
O=C(COc1ccccc1[N+](=O)[O-])N/N=C/c1ccc[nH]1	-5.8	-3%	14	1	0.2	.	-0.1	-6	i
O=C(Nc1ccccc1C(=O)Nc1ccc2c(c1)OCO2)c1ccco1	.	1%	.	.	.	0.67	4.4	-5	.
